# High-throughput results deposited in PubChem BioAssay by Johns Hopkins Ion Channel Center.
# KCNQ2 enhance = enhances the rat KCNQ2 potassium channel. 310,000 tested, 0.54% active. CHO-K1 KCNQ2, FluxOR thallium flux fluorescence; stronger effect = higher value. B-score at 10 µM. AID 2239;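 active means fluorescence ratio B-score at least 3 SD of library B-scores, with initial fluorescence B-score within 3 SD, cut at about 5.3 in these data; same plate scores as AID 2156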;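 further: B-score of peak minus minimum over baseline fluorescence ratio after K+ and Tl+ stimulus; positive B-score means potentiation of KCNQ2 with more thallium influx and brighter signal; only the inactives scoring about 0 or higher are listed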
# Target sequence (O88943 whole entry, looked up): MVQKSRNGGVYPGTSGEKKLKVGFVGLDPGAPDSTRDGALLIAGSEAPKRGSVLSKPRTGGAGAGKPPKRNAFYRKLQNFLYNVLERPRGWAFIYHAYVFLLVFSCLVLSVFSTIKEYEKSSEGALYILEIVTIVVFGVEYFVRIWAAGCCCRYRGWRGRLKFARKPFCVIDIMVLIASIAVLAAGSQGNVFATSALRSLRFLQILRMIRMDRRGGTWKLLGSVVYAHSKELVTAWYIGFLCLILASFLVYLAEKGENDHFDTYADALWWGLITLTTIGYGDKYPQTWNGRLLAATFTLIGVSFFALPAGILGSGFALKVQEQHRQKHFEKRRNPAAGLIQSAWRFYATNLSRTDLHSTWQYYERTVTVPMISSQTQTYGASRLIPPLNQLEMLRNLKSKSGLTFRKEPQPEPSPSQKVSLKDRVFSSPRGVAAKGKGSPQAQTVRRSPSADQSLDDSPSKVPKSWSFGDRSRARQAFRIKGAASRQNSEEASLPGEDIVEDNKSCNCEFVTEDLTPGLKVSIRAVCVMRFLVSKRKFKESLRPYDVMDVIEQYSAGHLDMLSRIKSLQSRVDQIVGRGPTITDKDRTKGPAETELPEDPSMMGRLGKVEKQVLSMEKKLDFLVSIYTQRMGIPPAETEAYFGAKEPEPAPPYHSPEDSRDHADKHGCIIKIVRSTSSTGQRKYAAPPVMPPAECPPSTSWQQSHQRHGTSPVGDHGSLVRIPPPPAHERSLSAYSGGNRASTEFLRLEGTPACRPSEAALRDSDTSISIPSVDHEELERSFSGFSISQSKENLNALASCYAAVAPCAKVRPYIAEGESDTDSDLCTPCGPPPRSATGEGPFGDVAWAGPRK
# KCNQ2 enhance baseline = recorded beside KCNQ2 enhance, whose call it bears; B-score; compound at 10 µM; measured here: initial fluorescence intensity artifact check;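 brightness before thallium and not channel activity; 0 = typical well and far values either way flag optical interference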
# Starred values were filed as active, the others as inactive. The list is partial; the hit share may differ from the screen's.
# Every second line gives: KCNQ2 enhance	KCNQ2 enhance baseline
CC(C)CNC(=O)CSc1nc2scc(-c3ccccc3)c2c(=O)[nH]1
 : 0.33	-1.22
CC(=O)c1cnc(Nc2ccc(C)cc2)s1
 : 1.65	0.09
CCC1(C(=O)OC)NC(c2ccco2)C2C(=O)N(c3ccc(C)cc3)C(=O)C21 (stereo not drawn)
 : 0.83	0.18
CCc1ccc(N(C(=O)c2csnn2)C(C(=O)NC(C)(C)C)c2cccnc2)cc1 (stereo not drawn)
 : 0.04	-0.17
CCOc1ccc(C(=O)C(C)OC(=O)CN2C(=O)NC(C)(C)C2=O)cc1 (stereo not drawn)
 : 0.44	-1.22
O=C(NNC(=O)c1ccccc1C(F)(F)F)c1csc(N2CCOCC2)n1
 : 0.33	0.64
O=C(NCCCN1CCN(C2CCCCC2)CC1)Nc1ccccc1C(F)(F)F
 : 0.97	0.73
O=C(CCc1ccccc1)N1CCN(S(=O)(=O)c2cccs2)CC1
 : 1.54	0.47
COc1ccccc1CNC(=O)c1cc(-c2ccccc2)nn1Cc1cc(C)no1
 : 0.04	-1.42
CC1CCCN(C(=O)c2cccc(S(=O)(=O)Nc3cc(C(F)(F)F)ccc3Cl)c2)C1 (stereo not drawn)
 : 0.15	-1.34
CCOc1ccccc1NC(=S)N(Cc1cc2ccc(C)cc2[nH]c1=O)CC1CCCN1CC (stereo not drawn)
 : 0.03	0.14
CCS(=O)(=O)N1CCN(C(=O)c2cccs2)CC1
 : 0.19	-0.31
CCC(C)[C@H](NC(=O)C1CC(=O)N(c2ccc(OC)cc2)C1)C(=O)NC1CCCC1 (stereo partly drawn)
 : 0.33	-0.83
COC(=O)N1C(=O)[C@@](c2ccccc2)(C2CCCC2)N1C(=O)OC
 : 0.92	1.37
COc1ccccc1/C=C/CN1CCC(Oc2ccc(C(=O)N3CCCC3)cc2)CC1
 : 0.79	0.92
COc1ccc2nc(NC(=O)C(NS(=O)(=O)c3cccs3)C(C)C)sc2c1 (stereo not drawn)
 : 0.04	0.6
Cc1cccc(OCC(=O)N/N=C/c2ccccc2C(=O)O)c1
 : 0.11	1.04
CC(=O)Nc1ccc(C2=NN(c3ccccc3)C(c3ccccc3)C2)cc1 (stereo not drawn)
 : 1.44	-3.16
CSC1=C(C#N)C(=O)NC(c2ccc(Cl)cc2)S1 (stereo not drawn)
 : 0.92	0.63
CCOc1ccc([N+](=O)[O-])c(N)c1
 : 1.83	-1.41
CSc1nnc(-c2cc3ccccc3cc2O)n1C
 : 0.34	0.16
O=C(CCS(=O)(=O)c1ccccc1)NCc1ccccc1
 : 1.45	-1.46
O=C(Nc1ccnn1C1CCN(Cc2c[nH]c3ccccc23)CC1)c1ccccc1
 : 0.63	0.28
CCn1c(SCC(=O)OC(C)C)nnc1-c1ccccc1OC
 : 1.79	0
CC(=O)N1c2ccccc2C(=O)C1N(C)c1ccc(C)cc1 (stereo not drawn)
 : 1.52	0.82
Cc1ccc(N(CC#N)C(=O)CS(=O)(=O)c2cccc([N+](=O)[O-])c2)cc1
 : 1.27	-0.01
CC1CC(=O)C2=C(C1)Nc1nc3ccccc3n1C2c1cccnc1 (stereo not drawn)
 : 0.09	-0.89
Cc1cc(C)n(C(=O)Cc2cn3ccsc3n2)n1
 : 0.42	0.6
CCCC(=O)Nc1nc2ccc(NC(=O)c3ccccc3F)cc2s1
 : 0.33	-1.63
CCOC(=O)CSC1=C(C#N)C(c2ccc(F)cc2)C(C(C)=O)=C(C)N1 (stereo not drawn)
 : 8.06*	-0.59*

# Structures above that have an NH in an aromatic ring, in the order listed:
# Every second line gives: KCNQ2 enhance	KCNQ2 enhance baseline
CC(C)CNC(=O)CSc1nc2scc(-c3ccccc3)c2c(=O)[nH]1
 : 0.33	-1.22
CCOc1ccccc1NC(=S)N(Cc1cc2ccc(C)cc2[nH]c1=O)CC1CCCN1CC (stereo not drawn)
 : 0.03	0.14
O=C(Nc1ccnn1C1CCN(Cc2c[nH]c3ccccc23)CC1)c1ccccc1
 : 0.63	0.28

# Additional results follow:
# Every second line gives: KCNQ2 enhance	KCNQ2 enhance baseline
O=C1N[C@@H](Cc2cn(S(=O)(=O)c3ccc(F)cc3)c3ccccc23)C(=O)N[C@H]1Cc1ccccc1
 : 0.49	-3.23
Brc1ccc2c(c1)C(c1cccs1)=NNC(c1cccnc1)=N2
 : 0.53	-0.26
Cc1ccc(CCC(=O)Nc2ccc(Cl)cc2)o1
 : 1.33	-1.75
COc1ccccc1OCCCCOc1ccccc1C(C)=O
 : 0.77	0.01
COc1ccc(C(C(O)C(=O)c2c[nH]c3ccccc23)N2CCN(c3ccc(OC)cc3)CC2)cc1 (stereo not drawn)
 : 0.55	0.03
COc1cccc(C2C3=C(N=c4s/c(=C\c5ccc(O)cc5)c(=O)n42)c2ccccc2CC3)c1OC (stereo not drawn)
 : 0.15	-0.67
O=C(CN1CCN(C(=O)C2CCCO2)CC1)Nc1ccc(Cl)cc1 (stereo not drawn)
 : 1.28	-1.42
NC1=NC2(CCCCC2)n2c(nc3ccccc32)N1
 : 1.95	-0.74
COc1ccccc1C(=O)Nc1nnc(S(=O)(=O)N2CCOCC2)s1
 : 0.23	-0.51
O=C(CSc1nc2ccc([N+](=O)[O-])cc2[nH]1)NC1CCCCC1
 : 1.75	-1.2
CN1CCN(C(c2ccc(C(F)(F)F)cc2)c2cc(Cl)c3cccnc3c2O)CC1 (stereo not drawn)
 : 0.01	-0.79
Cc1[nH]c2ccccc2c1C(=O)C(=O)N1CCN(C(=O)c2ccco2)CC1
 : 0.15	0.85
O=C(Cc1ccc(O)cc1)NCCNC(=S)NCc1ccccc1
 : 0.86	0.01
O=C1c2cccc3cccc(c23)C(=O)N1OS(=O)(=O)c1ccc(Br)cc1
 : 0.01	-1.09
Cc1cc(CNC(=O)COc2ccccc2F)c2ccccc2n1
 : 0.86	-0.24
Cc1ccc(C(=O)NCC(=O)OCC(=O)N(CC(C)C)c2c(N)n(Cc3ccccc3)c(=O)[nH]c2=O)cc1C
 : 0.76	-0.91
COc1ccc2c(c1)c(=O)oc1cc(O)ccc12
 : 0.69	-1.07
CCN1CCN(c2cc3c(cc2F)c(=O)c(S(=O)(=O)c2ccccc2)cn3C)CC1
 : 0.08	-0.82
COCCn1c(=O)[nH]c2cc(C(=O)NC3CCCCCC3)ccc2c1=O
 : 3.28	-2.43
CN1CCN(NC(=O)c2ccc(S(=O)(=O)N3CC4(C)CC3CC(C)(C)C4)cc2)CC1 (stereo not drawn)
 : 0.99	-0.22
O=C(CN1C(=O)NC2(CCCC2)C1=O)N1CCN(S(=O)(=O)c2ccccc2[N+](=O)[O-])CC1
 : 3.21	-0.87
CN(CC(=O)NCCN1CCCCCC1)S(=O)(=O)c1cccc2nsnc12
 : 2.16	-1.67
COCCOC(=O)C1=C(N)Oc2c(oc(CO)cc2=O)C1c1ccccc1F (stereo not drawn)
 : 1.18	0.87
COCCCN1C(=O)C(=O)/C(=C(/O)c2ccc(OC)cc2C)C1c1cccnc1 (stereo not drawn)
 : 0.13	-1.52
Cc1ccc(C(=O)N/C(=C\c2ccc(-c3cccc([N+](=O)[O-])c3)o2)C(=O)NCCCN2CCOCC2)cc1
 : 0.09	2.24
Cc1oc(/N=C/c2ccc(Cl)cc2)c(C#N)c1C
 : 0.05	-0.18
Cc1ccc(NC(=O)COC(=O)c2ccc3c(c2)OCCO3)cc1S(=O)(=O)N1CCOCC1
 : 2.06	-0.73
C#CCOCCOCCOCCNc1nc(N2CCN(C(=O)[C@H]([C@@H](C)O)n3cc(CCCCN)nn3)CC2)nc(N2CCN(C(=O)[C@H](Cc3ccc(O)cc3)n3cc(CCO)nn3)CC2)n1
 : 1.47	-2.05
CSc1ncc(C(=O)O)c(C)n1
 : 1.72	-3.04
Cc1c(NC(=S)NC(=O)Cc2ccccc2)cccc1C(=O)O
 : 0.55	-0.27

# Following part
Molecule	KCNQ2 enhance	KCNQ2 enhance baseline
O=C(Nc1ccccc1)c1nnn(Cc2ccccc2)c1NC(=O)C(F)(F)F	2.89	-2.16
COC(=O)C1=C(C)NC(C)=C(C(=O)OC)C1C(=O)OCc1nnc(-c2ccccc2)o1	0.75	-0.3
COc1ccc2c(CC(=O)OCC(=O)Nc3cc(C)c(C)cc3[N+](=O)[O-])coc2c1	0.88	-0.02
CC(C)c1ccc(NC(=O)c2ccccc2NC(=O)C2CCCCC2C(=O)O)cc1 (stereo not drawn)	0.06	-0.05
Cc1cc(C)nc(Sc2ccc(/C=C(\C#N)C(=O)Nc3ccccc3)o2)n1	0.14	0.47
CS(=O)(=O)N1CCc2cc(S(=O)(=O)Nc3ccc4oc5c(c4c3)CCCC5)ccc21	0.47	0.11
O=C(CNC(=O)c1ccccc1F)N/N=C/c1cn[nH]c1-c1ccccc1	0.46	0.24
CC(C)N(Cc1cnn(C)c1)C(=O)c1ccc(OC2CCN(Cc3ccccn3)CC2)cc1	0.14	1.13
O=C(CSc1nnnn1C1CCCC1)Nc1ccc2c(c1)OCO2	0.05	-1.35
COc1ccccc1N1CCN(C(=O)c2ccc(NC3=NC4CS(=O)(=O)CC4S3)cc2)CC1 (stereo not drawn)	1.61	0.12
COc1ccc(CC(=O)Nc2c3c(nn2-c2ccccc2C)CS(=O)C3)cc1 (stereo not drawn)	0.44	0.06
Cc1ccc(CCNC(=O)C2CCC(CNc3c(N4CCCC4)c(=O)c3=O)CC2)cc1 (stereo not drawn)	1.33	-1.43
CC(=O)C1=C(C)NC(SCC(N)=O)=C(C#N)C1c1cccnc1 (stereo not drawn)	0.7	-0.16
O=C(Cn1cncc1-c1ccc([N+](=O)[O-])cc1)Nc1ccccc1F	0.04	1.34
C/C(=N/n1cnnc1)c1cccnc1	2.16	-1.04

# Additional entries:
Molecule	KCNQ2 enhance	KCNQ2 enhance baseline
CCc1nc2cc([N+](=O)[O-])c([N+](=O)[O-])cc2[nH]1	0.11	-0.01
COc1ccc(Sc2nc(-c3ccccc3)ncc2C(=O)O)cc1	0.61	-0.61
COc1cc2nc(SCc3ccc(Cl)cc3Cl)n(Cc3cccs3)c(=N)c2cc1OC	0.02	0.05
CCCCN(C(=O)c1cc(=O)[nH]c2ccccc12)c1c(N)n(CCCC)c(=O)[nH]c1=O	0.88	1.24
COC(=O)c1cc(NC2c3ccccc3C(=O)N2CCN2CCOCC2)cc(C(=O)OC)c1 (stereo not drawn)	0.2	-0.81
CCOC(=O)c1oc2nc3c(cc2c1N)COC(C)(C)C3	0.79	0.25
Cn1cnnc1SCC(=O)Nc1ccc2nc(SCc3cccc4ccccc34)sc2c1	3.04	-1.86
CCC(C)NC(=O)CSc1n[nH]c(-c2cc(Cl)ccc2OC)n1 (stereo not drawn)	0.99	3.13
Cc1cc(-c2nnc(SCC(=O)Nc3ccccc3Cl)n2C)no1	1.37	0.03
COc1ccc(N2CCN(C(=O)c3cc4c(s3)-c3ccccc3S(=O)(=O)C4)CC2)cc1	2.13	-1.19
COc1cc(OC)cc(-n2nnnc2SCC(=O)N2CCCC2)c1	0.89	0.12
O=C(CCN1C(=O)/C(=C/c2cccs2)SC1=S)NNC(=O)c1cccc(O)c1	0.24	0.05
Cc1c(N=CN2CCOCC2)c(=O)n(C)c(=O)n1C	0.38	2.42
CCOC(=O)c1c(N)sc(C(=O)N2CCCC(C(N)=O)C2)c1C (stereo not drawn)	1.46	-0.38
O=C(C1CCOCC1)N1CCCC(N2CCN(c3cccc(Cl)c3)CC2)C1 (stereo not drawn)	0.04	1.11

# (cont.)
Molecule	KCNQ2 enhance	KCNQ2 enhance baseline
O=[N+]([O-])c1ccc(-c2nnc(-c3ccccc3)c(NCCCO)n2)cc1	1.23	-1.31
O=C(Nc1ccc(F)cc1)NC1(C(=O)NCc2ccco2)CCCCC1	2.16	0.73
Nc1nc(-c2ccccc2)[nH]c(=O)c1N=O	0.79	-0.63
CCOC(=O)C1CCCN(Cc2sccc2C)C1 (stereo not drawn)	0.11	-0.64
COc1ccc(CN2C3CCC2CC(NC(=O)c2cccc(F)c2)C3)cc1 (stereo not drawn)	0.35	0.01
OCC[C@@H]1C[C@@H](O)[C@H](O)[C@]2(OCc3ccccc32)O1	0.03	-0.09
CCC(C)(C)NC(=O)C(c1ccc(OC)cc1)N(C(=O)CCC(=O)Nc1cc(C)on1)c1ccccc1OC (stereo not drawn)	0.31	0.35
O=C(Cc1ccccc1Cl)Nc1ccc(S(=O)(=O)N2CCOCC2)cc1	0.97	-0.19
CC[n+]1ccccc1/C=C/Nc1ccccc1	1.72	0.61
CC(=O)Oc1ccc2c(C)c(CC(C)O)c(=O)oc2c1 (stereo not drawn)	0.41	0.09
O=C(CN1C(=O)C2CC=CCC2C1=O)Nc1ccc(S(=O)(=O)NC2=NCCCCC2)cc1 (stereo not drawn)	0.42	-2.37
CCOC(=O)NC(=O)COC(=O)c1ccc(O)cc1	0.69	-0.45
CCn1nc(C)c(Br)c1Nc1ccc(Br)cc1	4.47	0.84
COc1cc(CN2CCNC(=O)C2CC(=O)NC2CCCC2)cc(OC)c1 (stereo not drawn)	0.13	1.5
Cc1cccc(NC(=O)CSCc2c(C)noc2C)c1C	0.82	1.83
O=C(Nc1ccc(F)cc1)N(Cc1ccco1)Cc1cc2cc3c(cc2[nH]c1=O)OCO3	1.93	0.03
S=c1[nH]nc(CN2CCCCC2)n1-c1ccc(Cl)cc1	0.18	-0.2

# Reformatted as labelled records: part of the list above
O=C(Cc1ccccc1Cl)Nc1ccc(S(=O)(=O)N2CCOCC2)cc1
  KCNQ2 enhance = 0.97 | KCNQ2 enhance baseline = -0.19

CC[n+]1ccccc1/C=C/Nc1ccccc1
  KCNQ2 enhance = 1.72 | KCNQ2 enhance baseline = 0.61

CC(=O)Oc1ccc2c(C)c(CC(C)O)c(=O)oc2c1 (stereo not drawn)
  KCNQ2 enhance = 0.41 | KCNQ2 enhance baseline = 0.09

O=C(CN1C(=O)C2CC=CCC2C1=O)Nc1ccc(S(=O)(=O)NC2=NCCCCC2)cc1 (stereo not drawn)
  KCNQ2 enhance = 0.42 | KCNQ2 enhance baseline = -2.37
